# From PubChem
# VDR inh: blocks the human vitamin D receptor | 400,000 compounds, 0.93% hits | Potency, µM, for inactives: max response, negative = inhibition, hits mostly inhibitors | P11473 | AID 504847 | VDR-SRC2-3 peptide fluorescence polarization, 2 h; active = well fitted inhibition curve with a large enough effect; inconclusive = small, poorly fitted or top-dose-only effect, or another doubt; inactive = no such curve, though single readings can be large or run the other way; also: series mostly up to about 120 µM
# Target sequence (P11473 whole entry, looked up): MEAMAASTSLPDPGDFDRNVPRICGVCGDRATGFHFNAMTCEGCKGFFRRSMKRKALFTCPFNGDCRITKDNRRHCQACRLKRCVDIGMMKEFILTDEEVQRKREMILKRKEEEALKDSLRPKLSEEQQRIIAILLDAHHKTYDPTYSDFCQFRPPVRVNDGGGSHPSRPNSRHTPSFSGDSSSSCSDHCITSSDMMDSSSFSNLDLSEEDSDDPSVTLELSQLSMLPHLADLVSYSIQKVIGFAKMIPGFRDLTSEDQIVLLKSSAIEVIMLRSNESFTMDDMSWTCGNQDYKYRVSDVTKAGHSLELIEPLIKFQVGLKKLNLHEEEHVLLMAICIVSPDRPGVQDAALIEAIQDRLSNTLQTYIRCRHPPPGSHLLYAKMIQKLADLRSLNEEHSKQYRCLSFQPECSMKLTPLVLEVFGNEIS
#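 Signal is fluorescence polarization, reporting how far test compounds block the interaction of VDR with the SRC2-3 coregulator peptide after a 2 h room-temperature incubation.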
# * hit, by the source's call; ? = inconclusive; & = joins results of further samples; [ ] = remark or other dose. % is scaled to controls: 0 for no effect and ±100 for the full control effect; potency is read from the fitted curve at half-maximal effect. A portion of the library; rates above refer to the full screens.
VDR inh	Compound
11.0%	c1ccc(C2CC3CC(c4ccccc4)N2O3)cc1 (centres undefined)
-9.3%	Cc1cc(NC(=O)C(C)SCC(=O)N(C)Cc2ccccc2F)no1 (centres undefined)
3.6%	CC(C)(C)c1ccc(OCCCC(=O)NC2=NCCS2)cc1
0.0%	CC(Sc1ccc2c(c1)OCCO2)C(=O)Nc1ncc(Cl)cc1Cl (centres undefined)
-7.4%	CN(Cc1ccn[nH]1)C(=O)C1CCC(=O)N(Cc2cccc(C(F)(F)F)c2)C1 (centres undefined)
-2.6%	CSCCC(N)C(=O)O (centres undefined)
5.5%	COc1cccc(N(CC(=O)Nc2cccc(N(C)S(C)(=O)=O)c2)S(C)(=O)=O)c1
-4.2%	O=C(CN1CCN(CCN2C(=O)c3cccc4cccc(c34)C2=O)CC1)c1ccc(F)cc1
-6.4%	CO/N=C/c1cccn1-c1nccc(N(C)C)c1C#N
10.8%	CCCN=C(N)NCCC[C@H](N)C(=O)O
-7.2%	COc1ccc(-c2nnc(SCC(=O)c3ccc(O)cc3O)o2)cc1
-1.8%	Cc1nn(C(C)C(=O)NCc2ccco2)c(C)c1[N+](=O)[O-] (centres undefined)
4.5%	COc1ccc(OC)c(NC(=O)CCN2CCCCC2)c1
-8.8%	COc1cccc(NC(=O)COC(=O)c2ccc(S(=O)(=O)NCc3ccco3)cc2)c1
6.5%	CCN(CC)S(=O)(=O)c1ccc(C)c(NC(=O)/C=C/c2cccs2)c1
2.9%&6.1%&-18.7%	O=c1[nH]c2cc(Cl)ccc2c(O)c1-c1cccc(Oc2ccccc2)c1
2.5%&1.3%	Cc1ccc(OCC(=O)Nc2nnc(S(=O)(=O)N3CCCCCC3)s2)cc1
3.3%	Cc1ccc(C)c(N(CC(=O)NCCc2ccccc2)C(=O)CCC(=O)Nc2ccccn2)c1
-6.1%	O=C(O)CCNC(=O)/C(=C/c1ccco1)NC(=O)c1ccco1
-6.0%	Cc1cccc2nc(-c3cccnc3)c(Nc3ccc(C(C)C)cc3)n12
19.6%	CN(C)C(=O)CSc1nc(-c2ccccc2)c(-c2ccccc2)o1
-6.3%	COc1ccc(CCNS(=O)(=O)c2ccc(Cl)s2)cc1OC
-12.3%	O=C1c2ccccc2S(=O)(=O)N1CC(O)COc1ccc(Cl)cc1 (centres undefined)
-4.3%	O=C(NCCCN1CCc2ccccc2C1)C1CCN(c2nnc(-n3cccc3)s2)CC1

# An excerpt of these results, as tab-separated lines:
Structure	VDR inh
O=C1c2ccccc2S(=O)(=O)N1CC(O)COc1ccc(Cl)cc1 (centres undefined)	-12.3%
Cc1cccc2nc(-c3cccnc3)c(Nc3ccc(C(C)C)cc3)n12	-6.0%

# Later entries:
VDR inh	Compound
12.2%&-5.8%	COc1ccc(CCNC(=O)c2nnc(Cc3ccc(Cl)cc3)o2)cc1OC
6.0%	CCc1nn(C(C)C(=O)Nc2cccc(C)c2C)c(=O)c2cc3occc3n12 (centres undefined)
3.2%	O=C1c2cc(S(=O)(=O)NCCO)ccc2-c2ccc(S(=O)(=O)NCCO)cc21
18.7%	CCC(=O)Nc1cccc(NC(=O)c2ccc(C)cc2Cl)c1
3.5%	COc1ccc(CSc2nnc(C)s2)cc1F
-0.3%	CC1CCN(CCC(=O)N/N=C/c2ccc([N+](=O)[O-])cc2)CC1
6.7%	O=C(CSc1nnc(-c2ccccc2)n1Cc1ccccc1)N1CCCC1
-5.7%	Cc1ccccc1C(=O)Nc1c(C(=O)N2CCN(C)CC2)cnn1-c1ccccc1
1.6%	O=C(c1cc(-c2ccncc2)nc2ccc(Br)cc12)N1CCN(c2ccccn2)CC1
15.6%	Cc1csc(NC(=O)CSc2nnc(-c3ccncc3)n2C)n1
-0.1%	COC(=O)COc1ccc(S(=O)(=O)Nc2ccc(C(N)=O)cc2)cc1
-3.4%	COc1ccccc1N1CCN(C(=O)c2ccc(S(=O)(=O)N3CCCCCC3)cc2)CC1
-8.7%	Cc1ccc(S(=O)(=O)Cn2nnnc2C(C(C)C)N2CCN(Cc3ccco3)CC2)cc1 (centres undefined)
-8.9%	CC(C)Cc1nnc(NC(=O)CCC(=O)N2CCN(c3ccccn3)CC2)s1
-2.2%	O=C1COc2ccc(S(=O)(=O)NCc3ccc(Cl)cc3)cc2N1
-17.8%	Cc1ccc(OCCNC(=O)C2CCCCC2)cc1
-10.9%	Cc1ccccc1NC(=O)c1cccc(N2C(=O)C3C4CCC(C4)C3C2=O)c1 (centres undefined)
19.0%	O=C(Nc1cccc(-c2ccc3nncn3n2)c1)c1ccco1
-3.6%	Cc1ccc(NC(=O)CSc2ncc(-c3ccccc3)[nH]2)cc1
-12.0%	COc1ccc(S(=O)(=O)N2CCC(C(=O)NCCC(=O)Nc3cccc(OC)c3)CC2)cc1
7.6%	CCN1C[C@@H]2[C@@H]3C(=O)N(Cc4ccccc4)C(=O)[C@@H]3[C@](CC)(C1=O)N2C(=O)c1ccc(Cl)c(Cl)c1
-11.6%	CCOc1ccccc1C1C(C#N)=C(N)Nc2onc(-c3ccccc3)c21 (centres undefined)
-8.3%	CC1CCCC(C)N1/N=C/c1ccccc1C(=O)O (centres undefined)
6.7%	COc1ccc(NC(=O)CN(C)C(=O)c2ccc(C)c(S(=O)(=O)N3CCCCC3)c2)cc1
-1.4%	CSc1ccc(CN(C)CC(=O)Nc2cccc(Br)c2)cc1
-1.5%	CCn1cc(C(=O)OCC(=O)N2C(C)CCCC2C)c(=O)c2ccc(C)nc21 (centres undefined)
-9.3%	O=C(Cc1ccc(NC(=O)C2CCCN(C(=O)C3CC3)C2)cc1)Nc1ccc(C(=O)N2CCOCC2)cc1 (centres undefined)
?	CN1CCN(c2ccc(CNS(=O)(=O)c3ccsc3)cc2)CC1
-12.2%	Cc1c(N(CC(=O)O)S(=O)(=O)c2ccccc2)c(=O)n(-c2ccccc2)n1C
-1.1%	COc1cccc(NC(=O)CN(C)C(=O)c2ccc(NS(=O)(=O)c3ccc(F)cc3)cc2)c1
10.2%	COc1ccc2cc3cc(C(=O)N4CCN(c5ccc(C(C)=O)cc5)CC4)sc3nc2c1Cl
11.0%	O=C(Nn1c(C2CCCCC2)nc2ccccc2c1=O)c1ccc([N+](=O)[O-])cc1
-8.4%	O=C(CNC(=O)c1ccc(Br)o1)NCc1cccc(Cl)c1
7.0%	O=C(C1CCN(Cc2ccc(OCc3ccccc3)cc2)CC1)N1CCCC1
-0.6%	COc1ccc(-c2nc3c(-c4ccc(F)cc4)cnn3cc2C)cc1F
-13.7%	O=C(N[C@@H]1CCC(=O)N(CC[C@H](Sc2ccccc2)c2ccccc2)CC1)OCc1ccccc1
-10.5%	COc1ccc(NC(=O)CCN2CCN(Cc3ccccc3)CC2)c(OC)c1
3.7%	CCN(CC)S(=O)(=O)c1ccc(Cl)c(C(=O)NC2CCCC2)c1
10.4%	COC(=O)c1ccc(N(C(=O)c2ccco2)C(C(=O)NC2CCCC2)c2ccco2)cc1 (centres undefined)
0.0%	Cc1ccc(-n2nc(C)c3c(C(=O)Nc4ccc(C)cc4Cl)cc(C)nc32)cc1

# The closing six records of the section before lead into the next:
VDR inh	Compound
-0.6%	COc1ccc(-c2nc3c(-c4ccc(F)cc4)cnn3cc2C)cc1F
-13.7%	O=C(N[C@@H]1CCC(=O)N(CC[C@H](Sc2ccccc2)c2ccccc2)CC1)OCc1ccccc1
-10.5%	COc1ccc(NC(=O)CCN2CCN(Cc3ccccc3)CC2)c(OC)c1
3.7%	CCN(CC)S(=O)(=O)c1ccc(Cl)c(C(=O)NC2CCCC2)c1
10.4%	COC(=O)c1ccc(N(C(=O)c2ccco2)C(C(=O)NC2CCCC2)c2ccco2)cc1 (centres undefined)
0.0%	Cc1ccc(-n2nc(C)c3c(C(=O)Nc4ccc(C)cc4Cl)cc(C)nc32)cc1
12.9%	CCOc1ccc(/C=C/C(=O)Nc2sc3c(c2C(=O)OC)CCCC3)cc1
8.3%	Fc1cccc(NC(=S)N2CCCCC2)c1
-18.8%	O=C(NNC(=S)Nc1ccccc1)c1cccs1
10.5%	Cc1cccc(NS(=O)(=O)c2ccc(C3CCCCC3)cc2)c1
-12.5%	COc1ccc(C2=Nn3c(nnc3-c3cc(C)[nH]n3)SC2)cc1
-18.3%	Cc1c(C(=O)N2CCCCC2)c(S(=O)(=O)NCCc2ccccc2)c(C)n1C
5.3%	O=CNCC(=O)NC1CCCCCC1
30.3%[activator]	CC1=C(Sc2ccccn2)C(=O)NC(C)(C)C1
-13.6%	Cc1ccc(C(=O)COC(=O)CCN2C(=O)C3C4CCC(C4)C3C2=O)cc1[N+](=O)[O-] (centres undefined)
13.9%	COc1ccc(N(CC(=O)NC2CCCCCC2)S(=O)(=O)c2ccccc2)cc1Cl
6.4%	CC1CCCCC1NC(=O)/C(C#N)=C/c1ccc(F)c(F)c1 (centres undefined)
15.0%	CCOC(=O)c1c(C)nsc1NC(=O)c1ccco1
14.9%	N#Cc1ccc(C(=O)Nc2ccccc2-c2nc3ccccc3s2)c(F)c1
-9.3%	S=c1sc2ccccc2n1CCc1ccncc1
-12.7%	Cc1nc2nc(SCC(=O)NC3CCCCC3)nn2c(C)c1Cc1ccccc1Cl
21.4%	CC(=C/c1ccc(C(C)C)cc1)/C=N/NC(=O)Cn1nc(C)cc1C
-0.5%	CC12C=CC3(O1)C(C(=O)N(c1ccccc1)C3C(=O)NC1CCCC1)C2C(N)=O (centres undefined)
31.9%[activator]	O=C(O)C(C/C(=N/O)c1ccc(Br)cc1)P(=O)(c1ccccc1)c1ccccc1 (centres undefined)
?	O=c1ccc2c(-c3ccccc3)c3ccc(O)cc3oc-2c1
-20.3%	COc1cccc(Cn2c(=O)c(-c3cccs3)nc3cnc(OCc4ccccc4)nc32)c1
-2.2%	Cc1ccc(N(C(=O)c2nsc(Cl)c2Cl)C(C(=O)NC2CCCC2)c2ccc(O)cc2)cc1C (centres undefined)
-3.7%	CCn1c(SCCOc2ccc(OC)cc2)nnc1C(CO)NC(=O)c1ccc(OC)cc1 (centres undefined)
13.3%	CCN(c1cc(C)cc(C)c1)S(=O)(=O)c1nnc(NC(=O)c2cccc(F)c2)s1
-6.3%	Cc1nc2ccccc2n2c(O)c(CC(=O)O)cc12
-9.8%	O=C(NCC(c1ccc2c(c1)OCO2)N1CCOCC1)C(=O)Nc1ccc(F)cc1F (centres undefined)
-6.6%	CC(NC(=O)c1ccc(NC(=O)CC2SC(N3CCCC3)=NC2=O)cc1)c1ccc(S(N)(=O)=O)cc1 (centres undefined)
1.5%	O=S(=O)(c1ccc(Cl)cc1)N1CCC(N2CCOCC2)CC1
-26.2%	COc1ccc2c(c1)/C(=C/c1cc(OC)c(OC)c(OC)c1)C(=O)N2
0.9%	CN(Cc1nc(-c2cccs2)no1)CC(O)c1ccccc1 (centres undefined)
-9.6%	COc1cccc(CC(C(=O)Nc2cc(C)ccc2C)c2nn[nH]n2)c1OC (centres undefined)
-1.1%	COC(=O)CCN(C1CCCCC1)S(=O)(=O)c1ccc(S(=O)(=O)N2CCCCC2)cc1
-11.0%	CN(Cc1ccccc1)C(=O)COc1cccnc1[N+](=O)[O-]
-8.5%	COc1cc(-c2nc3ccccn3c2/N=C/c2ccccc2)ccc1O
-9.6%	CCCCNC(=O)OC1CCS(=O)(=O)C1 (centres undefined)
7.1%	N#CC[n+]1cc(-c2ccc(Cl)cc2)n2c1CCC2
-5.4%	CCc1ccc(C2CC(c3ccccc3C)n3nc(N)nc3N2)cc1 (centres undefined)
17.4%	CCN(CC)S(=O)(=O)c1cc(C(=O)OCC(=O)Nc2cccc(S(=O)(=O)N(C)C)c2)ccc1F
-2.7%	Cc1cccc(NS(=O)(=O)c2cccc(C(=O)NCCCN3CCOCC3)c2)c1
7.0%	CCOc1cccc(C2C(C(=O)c3ccc(C)o3)=C(O)C(=O)N2c2nnc(C)s2)c1 (centres undefined)
6.9%	O=C(/C=C\c1cn(-c2ccccc2)nc1-c1cccs1)N1CCOCC1

# Taken from above.
# VDR inh result of CCOc1cccc(C2C(C(=O)c3ccc(C)o3)=C(O)C(=O)N2c2nnc(C)s2)c1 (centres undefined) stands at 7.0%
# VDR inh result of COc1cc(-c2nc3ccccn3c2/N=C/c2ccccc2)ccc1O stands at -8.5%
# VDR inh result of N#CC[n+]1cc(-c2ccc(Cl)cc2)n2c1CCC2 stands at 7.1%
# VDR inh result of Cc1cccc(NS(=O)(=O)c2cccc(C(=O)NCCCN3CCOCC3)c2)c1 stands at -2.7%
# VDR inh result of CCCCNC(=O)OC1CCS(=O)(=O)C1 (centres undefined) stands at -9.6%

# Next part.
VDR inh	Compound
1.3%	COc1ccc(-n2nc([N+](=O)[O-])c(=NCCc3ccc(C)cc3)n2O)cc1
-19.4%	O=C(Nc1ccc(Cl)cc1)c1ccc(CN2CCc3ccccc3C2)cc1
-7.1%	O=C1NC(c2cccc3ccccc23)Nc2ccc(Cl)cc21 (centres undefined)
-11.2%	COCCn1c(SCC(=O)N2CCCC2=O)nc2sc(C)c(C)c2c1=O
9.6%	CC(=O)Nc1ccc(S(=O)(=O)Nc2cccc(-c3ccc(N4CCCCCC4)nn3)c2)cc1
2.5%	Cn1c(=O)c2cc(S(=O)(=O)NC(C(=O)N3CCCCCC3)c3ccccc3)ccc2n(C)c1=O (centres undefined)
-15.6%	CNC(=O)[C@@]1(Cc2ccccc2)C=C[C@@H](C)N1C(=O)OC
12.5%	COc1ccc2c(c1)nc(NCCO)n2C
7.4%	CN(C)S(=O)(=O)c1ccc(C(=O)Nc2ccc(OCC(=O)N3CCOCC3)cc2)cc1
16.0%	O=C(Nc1nc2c(Cl)cccc2s1)c1ccc(Br)o1
-10.7%	CS(=O)(=O)N(CC(=O)Nc1cccc([N+](=O)[O-])c1)c1ccccc1F
7.6%	C=CCNc1oc(COc2ccc(C)cc2)nc1C#N
7.0%	Cc1csc(SCC(=O)Nc2c(C)n(C)n(-c3ccccc3)c2=O)n1
-5.3%	O=c1c2c(nc3nc(SCc4ccccc4)[nH]n13)CCC2
-7.3%	COc1cccc(C(=O)N2CCN(c3ccccn3)CC2)c1
-18.4%	CC(C)c1ccc(Nc2ccc(C(=O)O)cc2[N+](=O)[O-])cc1
-3.3%	Cc1c(C(=O)N2CCCCC2)c(S(=O)(=O)NCCc2ccc(S(N)(=O)=O)cc2)c(C)n1C
1.8%	Cc1cnc(NC(=O)C2CC(=O)N(c3cccc(Cl)c3)C2)s1 (centres undefined)
